GIV-Gai inh: inhibitors of GIV peptide binding to Galpha-i3, primary screen, biochemical, fluorescence polarization, FITC-GIV GBA peptide, rat Galphai3. 90 min; stronger effect = lower value; scaled: aluminum fluoride 0%, vehicle 100%. 210,000 compounds, 0.42% hits. percent of control (FP), % (no concentration beside the values). Guanine nucleotide-binding protein G(i) subunit alpha-3 (Rattus norvegicus), P08753;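 active means replicate mean at 85% of control or lower, very high polarization wells dropped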;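 further: wells of about 15 µL received 100 nL stock; the first replicate is given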
Target sequence (P08753 whole entry, looked up): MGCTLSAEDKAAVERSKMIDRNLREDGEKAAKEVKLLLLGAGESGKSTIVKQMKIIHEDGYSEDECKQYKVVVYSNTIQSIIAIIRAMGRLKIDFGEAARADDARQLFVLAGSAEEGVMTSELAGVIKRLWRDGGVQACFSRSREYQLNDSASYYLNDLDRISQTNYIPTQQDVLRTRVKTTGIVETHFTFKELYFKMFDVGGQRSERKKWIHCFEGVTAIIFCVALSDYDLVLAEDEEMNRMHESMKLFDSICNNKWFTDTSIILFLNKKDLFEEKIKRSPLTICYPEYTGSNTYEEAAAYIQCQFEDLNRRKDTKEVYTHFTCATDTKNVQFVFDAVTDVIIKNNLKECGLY
HCMV NEC inh: inhibitors of HCMV UL50-UL53 interaction, biochemical, HTRF; normalized percent inhibition; inhibition, % (concentration not given with the values); AID 1918969, 2023; 190,000 compounds, 0.15% hits;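 active means both replicates at 50% or more, plus weaker picks with an unusually low signal ratio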;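 further: stock transfer was 100 nL into about 20 µL; 0% = negative control wells and 100% = wells with untagged competitor protein; inactives centre near -12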
Sa growth inh: S. aureus growth inhibition at 42 and 30 °C, primary screen, LtaS inhibitor project, RN4220, two temperatures; OD600, 20 h, 42 °C; stronger effect = lower value; relative growth, % (no concentration beside the values); 170,000 compounds, 0.53% hits;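 active means growth at 42 °C up to 50% and 20 or more points under that at 30 °C, or under 10% at both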;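 further: 300 nL library stock went into each well; scaled to the means of positive and negative controls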
Sa growth inh second temp: also measured in Sa growth inh; calls as there; relative growth, %; measured here: growth at 30 °C;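 optical density after 20 h as mean of two plates; 100% = untreated growth and lower means inhibition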
An asterisk follows results filed as active; / = not tested or not shown; & = joins results of further samples.

nr	molecule	GIV-Gai inh	HCMV NEC inh	Sa growth inh	Sa growth inh second temp
1	COc1cccc(NC(=O)N2CCC(CN3CCCCCC3)CC2)c1	101	4	99	108
2	CCCN1C2CCCC1CC(NC(=O)Nc1ccccc1C(F)(F)F)C2 (stereo not drawn)	101	-6	119	105
3	CCS(=O)(=O)Nc1ccc(Cc2ccncc2)cc1	105	14	106	111
4	Cn1c(CC(=O)NN)nc2ccccc21	/	-5	91	93
5	COc1cccc(NC(=O)Cc2csc(COc3cccc(C)c3)n2)c1	106&106	4&-18	101	83
6	Cc1ccc(-c2cc(C(=O)Oc3ccc(C#N)cc3)no2)cc1C	103	-12	99	90
7	O=C(COc1ccccc1F)OCc1cc(=O)n2nc(-c3cccs3)sc2n1	112	/	99	91
8	COc1ccc(S(=O)(=O)N2CCC(N(C)C(C)C)CC2)cc1	104	-3	96	93
9	CCOC(=O)c1cc[nH]c1C	102	/	117	85
10	N#Cc1c(N(S(=O)(=O)c2ccccc2)S(=O)(=O)c2ccccc2)sc2c1CCCC2	100	13	145	98
11	CC(C)NC(=O)C1CCN(S(C)(=O)=O)CC1	108	4	108	94
12	O=c1c2oc3ccccc3c2ncn1Cc1ccc(Br)cc1	114	/	77	85
13	COc1ccc(-n2nc3c(c2NC(C)=O)CS(=O)C3)cc1 (stereo not drawn)	107	/	103	90
14	COc1ccc(C(NC(=O)C(C)C)c2ccc3cccnc3c2O)cc1OC (stereo not drawn)	99	-35	93	79
15	CC(=O)Nc1cccc(-n2nnc(SCC(=O)c3ccccc3)n2)c1	103	-23	76	53
16	Cc1oc(-c2ccc(C(=O)NCCN(C)C)cc2)nc1CS(=O)(=O)c1ccccc1	106	/	109	90
17	O=C(NCc1cccs1)c1cc2c(s1)CCCC2	/	-13	102	91
18	CC(=O)N1CCN(c2nc(-c3ccccc3)c3cc(Cl)ccc3n2)CC1	101	-21	/	/
19	O=C(COc1ccccc1)Nc1ccccc1Cl	106	/	106	73
20	CCc1ccc(-n2c(SCC(=O)NCc3ccco3)nc3n[nH]c(C)c3c2=N)cc1	105	-12	96	82
21	CCc1[nH]nc2c1C1(C(=O)N(CC)c3ccccc31)C(C#N)=C(N)O2 (stereo not drawn)	103	-3	104	63
22	COc1ccc(NC(=O)c2sc(SC)nc2N)cc1	/	-15	82	81
23	O=C(COC(=O)C1CC2C=CC1C2)NCc1ccc(F)cc1 (stereo not drawn)	/	9	95	98
24	Cc1ccc2[nH]c(=O)c(-c3noc(CCC(=O)Nc4ncccc4C)n3)cc2c1	106	-48	/	/
25	Cc1nnc(NC(=O)CSc2nccn2Cc2ccccc2)s1	97	/	77	91
26	Cc1ccc(C(C#N)N2CCOCC2)cc1 (stereo not drawn)	94	3	91	70
27	COc1ccccc1C(=O)NCC(c1ccccc1)c1c[nH]c2ccccc12 (stereo not drawn)	103	-29	/	/
28	O=C(CSc1nsc(SCC(=O)Nc2ccc(F)cc2)n1)Nc1ccc(F)cc1	98	-9	79	88
29	Cc1ccc(CCCN)c(C)c1	/	-32	80	96
30	c1ccc(CC2CCN(Cc3ccncc3)CC2)cc1	107	-2	104	100
31	CCc1ccc(C2N3CC4(CC)CN2CC(CC)(C3)C4=O)cc1 (stereo not drawn)	106	-15	86	84
32	COc1cc(C(F)(F)F)nc2ccc(C#CCOC(=O)Nc3ccccc3)cc12	103	-8	107	92
33	COc1ccc2cc3c(N)nn(C(=O)C4Cc5ccccc5CN4S(C)(=O)=O)c3nc2c1 (stereo not drawn)	111	-36	86	84
34	CCOc1ccccc1N1CC(c2nc3ccccc3n2Cc2c(C)cc(C)cc2C)CC1=O (stereo not drawn)	106	-18	112	83
35	Cc1c(C(=O)NC2CCN(Cc3ccccc3)CC2)cnn1-c1ccc(Cl)cc1	102	-1	94	90
36	CC1CCCCC1Nc1ncnc2onc(-c3ccc(F)cc3)c12 (stereo not drawn)	107	-32	110	90
37	N#Cc1c(C(F)(F)F)cc(C23CC4CC(CC(C4)C2)C3)nc1SCCC(=O)O	99	/	44	50
38	O=S(=O)(Nc1ccc2nc(-c3cccc(Cl)c3)oc2c1)c1ccccc1	95	-20	108	88
39	CC1CCN(S(=O)(=O)c2ccc(C(=O)NC34CC5CC(CC(C5)C3)C4)cc2)CC1	/	-4	108	87
40	Cc1cccc(C)c1OCC(=O)Oc1cccc(-n2cnnn2)c1	102	3	/	/
41	COc1cc(OC)c(NS(=O)(=O)c2csc(C(N)=O)c2)cc1Cl	100	11	/	/
42	O=C(CSc1ccccc1)N1CCN(c2nc3ccccc3n3cccc23)CC1	105	-30	/	/
43	CN(C)c1ccc(C(CNC(=O)CCc2ccccc2)N(C)C)cc1 (stereo not drawn)	99	-19	/	/
44	COC(=O)c1cccc(NC(=O)Nc2ccccc2)c1	107	-6	101	93
45	O=C1CCCC2=C1C(c1cc(Br)ccc1O)C1C(=O)c3ccccc3C1=N2 (stereo not drawn)	101	-65	48	4
46	COc1ccc(-c2cc(C)no2)cc1S(=O)(=O)CCC(=O)Nc1ccc(S(N)(=O)=O)cc1	108	-22	/	/
47	Clc1ccc2nc(-c3ccc(Br)o3)c(Nc3ccc4c(c3)OCCO4)n2c1	102	-11	94	93
48	CNCc1c(C)nn(-c2ccccc2)c1C	/	9	89	97
49	CC(C)CCN(C)C1CCN(C(=O)Nc2ccccc2)CC1	100	7	91	98
50	CCOC(=O)C1C(=O)C=C(c2ccc3ccccc3c2)CC1c1ccc(C(F)(F)F)cc1 (stereo not drawn)	100	-45	99	96
51	CCOC(=O)c1ccc2c(c1)nc(C)n2CC	108	-11	98	91
52	CCN(c1ncnc2c1cnn2-c1cc(Cl)ccc1C)C1CCCCC1	104	/	108	97
53	NS(=O)(=O)c1ccc(CCNCC(=O)N2CCc3ccccc32)cc1	/	0	107	98
54	O=C(Nc1cccc(Cl)c1)C1CCN(S(=O)(=O)Cc2ccccc2)CC1	103	-20	98	87
55	Cc1cn2c(=O)cc(COC(=O)c3cccc(NC(=O)COc4ccc(Cl)cc4)c3)nc2s1	101	/	86	89
56	CCCn1cnc2nc(CSc3ccccc3NC(=O)c3ccccc3C)cc(=O)n21	98	-33	/	/
57	N#C/C(=C\c1ccc(C(F)(F)F)cc1)c1cccs1	109	1	99	94
58	Cc1cccc(C)c1NC(=O)CSCC(=O)O	/	-26	107	85
59	CCCCOC(=O)C1CCCC(C)N1 (stereo not drawn)	108	-10	100	87
60	CCN(CC)c1ncnc2c1cnn2-c1cc(Cl)ccc1C	110	/	106	96

The results go on.
nr	molecule	GIV-Gai inh	HCMV NEC inh	Sa growth inh	Sa growth inh second temp
61	CC(=O)ON1C(C)(C)CC(OC(=O)c2ccco2)CC1(C)C	/	2	80	96
62	COc1ccc(Br)cc1S(=O)(=O)N1CCCCCC1	100	-12	94	87
63	CC(C)CCN1C(=O)c2ccccc2CC1(C)C(=O)NC1CCC(C)CC1 (stereo not drawn)	101&98	-31&-1	101	87
64	CSc1ccc(CCNC(=O)NCc2noc3ccccc23)cc1	100	/	104	79
65	Cc1ccc(C)c(NC(=O)N2CCC(c3nc(-c4ccccc4)no3)CC2)c1	102	-26	/	/
66	CC(=O)Oc1ccc(C)cc1-n1nc2ccccc2n1	/	-19	46*	70*
67	CCOC(=O)N1CCC(NC(=O)CCc2c(C)nc3cc(-c4ccccc4)nn3c2C)CC1	102	-7	96	77
68	CCOc1cccc(CNC(=O)c2ccc(N3CCCC3)c(NC(=O)NCc3ccc(F)cc3)c2)c1	96	/	87	90
69	CC1(C(=O)NCc2ccccc2)CCN(C(=O)c2cccc(F)c2)CC1	110	-5	/	/
70	Cc1ccc(C2C3=C(CC(c4ccccc4)CC3=O)Nc3ccccc3N2C(=O)CCC(=O)O)cc1 (stereo not drawn)	102	-23	/	/
71	O=C1c2[nH]nc(-c3ccc(Br)cc3)c2C(c2cccc(O)c2)N1c1ccc(Cl)cc1 (stereo not drawn)	108	-17	107	85
72	CCC(=O)Nc1ccc2nc(SCC(=O)Nc3ccc(OC)cc3[N+](=O)[O-])sc2c1	103	-26	/	/
73	CC(C)(C)OC(=O)Cn1c(=O)cnc2ccccc21	/	-29	105	109
74	Cc1nc(C(N)=O)c(N)n1C	/	-16	87	87
75	Cc1ccc(NC(=O)N(Cc2cc3cc(C)cc(C)c3[nH]c2=O)CC2COCCO2)cc1 (stereo not drawn)	97	-26	97	94
76	COc1ccc(CNC(=O)c2cnc3sc(N4CCCCCC4)nn3c2=O)cc1	96	/	97	96
77	Cc1nc(SCCN2C(=O)c3ccccc3C2=O)c2c3c(sc2n1)CCC3	101	0	/	/
78	CC[N+]1(CC(O)COC2CC(C)CC(C)(C)C2)CCOCC1 (stereo not drawn)	/	-5	94	95
79	O=C(O)/C=C/C(=O)NN1C(=O)c2ccccc2C1=O	/	-13	81	86
80	Cc1cccc(NC(=O)CSc2nc3ccc(NC(=O)COc4ccccc4C)cc3s2)c1	101	-9	120	72

Complete entries from above:
CCOc1cccc(CNC(=O)c2ccc(N3CCCC3)c(NC(=O)NCc3ccc(F)cc3)c2)c1 is entered as GIV-Gai inh: 96; HCMV NEC inh: /; Sa growth inh: 87; Sa growth inh second temp: 90
CC1CCN(S(=O)(=O)c2ccc(C(=O)NC34CC5CC(CC(C5)C3)C4)cc2)CC1 is entered as GIV-Gai inh: /; HCMV NEC inh: -4; Sa growth inh: 108; Sa growth inh second temp: 87
COc1ccc2cc3c(N)nn(C(=O)C4Cc5ccccc5CN4S(C)(=O)=O)c3nc2c1 (stereo not drawn) is entered as GIV-Gai inh: 111; HCMV NEC inh: -36; Sa growth inh: 86; Sa growth inh second temp: 84

Next structures:
nr	molecule	GIV-Gai inh	HCMV NEC inh	Sa growth inh	Sa growth inh second temp
81	CCCn1c(=O)c2ccccc2n2c(SCC(=O)Nc3ccc(CC)cc3)nnc12	102	-17	/	/
82	COCCNc1oc(/C=C/c2ccc(F)cc2)nc1C#N	100	-82	113	84
83	Cc1cc(Cl)ccc1S(=O)(=O)Nc1cc2c(cc1SC(C)C)n(C)c(=O)n2C	104	-15	/	/
84	O=C(NCCN1CCCCC1)C1CCCN1c1nnc(N2CCCC2=O)s1 (stereo not drawn)	104	-23	/	/
85	Cc1cc(C)c2c(CC(=O)NC3CC(C)(C)NC(C)(C)C3)coc2c1	99	-1	103	97
86	CCC(Oc1ccccc1-c1nnc(-c2ccccc2)o1)C(=O)Nc1ccc(C(C)=O)cc1 (stereo not drawn)	108	/	106	98
87	CCCCn1c(C)c(C)c2c1ncn1nc(CSc3nc4ccccc4o3)nc21	107	-30	/	/
88	c1csc(-c2csc(Cc3nc(-c4cccs4)cs3)n2)c1	106	-38	93	78
89	Cc1ccc(-c2nc3nc(C)cc(N(C)CCO)n3n2)cc1	112	-12	/	/
90	COC(=O)c1ccccc1NC(=O)c1cc2c(s1)-c1ccccc1S(=O)(=O)C2	100	2	105	92
91	CC1(C)CC(=O)NC=C(c2ccccc2)C1	/	12	73	84
92	COc1ccc(Cn2c(=O)c3oc4ccccc4c3n(CC(=O)Nc3c(C)cccc3C)c2=O)cc1	97	/	116	87
93	CC(=O)OC(C(=O)N1CCN(C(c2ccccc2)c2ccccc2)CC1)c1ccccc1 (stereo not drawn)	96	/	102	95
94	Cc1cc(NC(=O)Nc2ccc3c(ccn3C)c2)sn1	107	-15	/	/
95	CC(C)Nc1nc(NC(C)C)nc(OCCOC(=O)Nc2ccccc2)n1	98	6	106	89
96	COc1cc(C2Nc3ccc(C(=O)c4ccccc4)cc3NC3=C2C(=O)CC(C)(C)C3)ccc1O (stereo not drawn)	104	-43	/	/
97	CCC(COc1nnnc2ccccc12)NC(=O)Cn1c(=O)cc(C)c2ccccc21 (stereo not drawn)	98	-30	93	86
98	CCOC(=O)CSc1nc2c(C)ccc(F)c2cc1C	100	1	109	90
99	O=S1(=O)c2cccc3cccc(c23)N1Cc1cccc(C(F)(F)F)c1	107	/	86	91
100	C=CCN1C(=O)/C(=C\c2ccc(O)c(Br)c2)C(=O)NC1=S	101	/	107	78

Of the compounds above, these have a COOH group:
nr	molecule	GIV-Gai inh	HCMV NEC inh	Sa growth inh	Sa growth inh second temp
37	N#Cc1c(C(F)(F)F)cc(C23CC4CC(CC(C4)C2)C3)nc1SCCC(=O)O	99	/	44	50
58	Cc1cccc(C)c1NC(=O)CSCC(=O)O	/	-26	107	85
70	Cc1ccc(C2C3=C(CC(c4ccccc4)CC3=O)Nc3ccccc3N2C(=O)CCC(=O)O)cc1 (stereo not drawn)	102	-23	/	/
79	O=C(O)/C=C/C(=O)NN1C(=O)c2ccccc2C1=O	/	-13	81	86

(cont.)
nr	molecule	GIV-Gai inh	HCMV NEC inh	Sa growth inh	Sa growth inh second temp
101	O=C(O)CCCC(=O)N1N=C(c2cccs2)CC1c1cn(-c2ccccc2)nc1-c1ccccc1 (stereo not drawn)	102	-39	/	/
102	CCc1ccc(N(CC)C(=O)c2cn(CC)c(=O)c3cc(OC)c(OC)cc23)cc1	102	/	110	79
103	Cc1cc2oc(=O)cc(CN(C)c3ccccc3)c2cc1Cl	/	-5	104	90
104	O=C(NCc1ccco1)c1ccc2c(c1)C(=O)c1ccccc1-2	105	-104	105	72
105	CCN(CC)S(=O)(=O)c1ccc(C(=O)NC2CC(=O)N(c3ccc4c(c3)OCCO4)C2)cc1 (stereo not drawn)	101	/	101	87
106	CCc1ccc(NC(=O)Cn2nnc(C(=O)NCc3ccc(C)cc3)c2N)cc1	99	/	92	86

Screens from PubChem.

Outcome played no part in choosing rows; any-hit rate near 0.8%.
